Compound activity from PubChem.
gsp agonist: qHTS for Agonist of gsp, the Etiologic Mutation Responsible for Fibrous Dysplasia/McCune-Albright Syndrome: qHTS; Potency, µM (highest dose often 76.9 µM), without a hit: top-dose activation (cAMP increase), hits mostly activators; gsp mutant cells, cAMP HTRF, 30 min; control for the full effect not named in the record; hit rate 0.13% among 340,000; active = well fitted activation curve with a large enough effect; inconclusive = small, poorly fitted or top-dose-only effect, or another doubt; inactive = no such curve, though single readings can be large or run the other way; cell line not stated here;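 note: phosphodiesterase inhibitor Ro 20-1724 added with compounds to block cAMP breakdown; potency is the fitted concentration of half-maximal effect; nearly all actives have a fitted effect of over 60% in size; about a fifth of the inactives were tested at one dose only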
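Cells in DMEM/10% FBS with G418 were pretreated with compounds in DMSO plus […] (300 uM stock) for 30 min at 37C. cAMP was measured by HTRF (cAMP-d2 plus anti-cAMP antibody-K) after 30 min at room temperature.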
Menin-MLL FL inh: qHTS Assay for Inhibitors Targeting the Menin-MLL Interaction in MLL Related Leukemias: Competition With Fluorescein Labeled MLL-derived Peptide. Fluorescence polarization, fluorescein-MLL peptide displacement from menin. 290,000 tested, under 10 active. FP activity change, % at 61.4 µM. AID 1766, 2009; inconclusive = falling polarisation curve, or a change in total fluorescence; inactive = total fluorescence flat and polarisation flat or rising; no compound was filed as active; the % refers to the polarisation; negative = inhibition;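 note: % of control where 0% means no effect; inhibitors lower the polarisation; unlabelled MLL peptide was the positive control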
PINK1 modulator: A Quantitative High throughput Screen to Identify Chemical Modulators of PINK1 Expression; PINK1 immunofluorescence, high-content cytometry, 24 h; Potency, µM (doses to about 76.6 µM), without a hit: at the top dose activation (PINK1 increase), usual class: activators; hit rate 0.2% among 410,000; AID 624263, 2012; active = well fitted activation curve with a large enough effect; inconclusive = small, poorly fitted or top-dose-only effect; inactive = flat fitted curve, though single readings scatter; cell line not stated here;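 note: potency is the fitted concentration of half-maximal effect; % of control where 0% means no effect; nearly all actives have a fitted effect of over 65% in size; a mitochondrial uncoupler was the plate control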
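Fluorescence from anti-PINK1 antibody, together with nuclear and cell stains, was scanned on a laser-scanning cytometer. Before staining, stable-line cells were incubated 24 hours with compounds at 5 concentrations; primary antibody 12 h at 10 degrees C.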
D2 agonist: Beta-Arrestin HTS for Positive Allosteric Modulators of the Human D2 Dopamine Receptor: Agonists. D(2) dopamine receptor (Homo sapiens), P14416. AID 624465, 2012. DiscoveRx PathHunter D2 beta-arrestin, luminescence, 90 min; 100% = 57 uM dopamine signal. activation, % (test concentration not listed). hit rate 0.084% among 360,000; in the data active = activation above about 40%; inconclusive = about 15% to 40%; inactive = below about 15%; note: compound concentration not given in the record; the text of the record calls up to 30% inactive
Target sequence (P14416 whole entry, looked up): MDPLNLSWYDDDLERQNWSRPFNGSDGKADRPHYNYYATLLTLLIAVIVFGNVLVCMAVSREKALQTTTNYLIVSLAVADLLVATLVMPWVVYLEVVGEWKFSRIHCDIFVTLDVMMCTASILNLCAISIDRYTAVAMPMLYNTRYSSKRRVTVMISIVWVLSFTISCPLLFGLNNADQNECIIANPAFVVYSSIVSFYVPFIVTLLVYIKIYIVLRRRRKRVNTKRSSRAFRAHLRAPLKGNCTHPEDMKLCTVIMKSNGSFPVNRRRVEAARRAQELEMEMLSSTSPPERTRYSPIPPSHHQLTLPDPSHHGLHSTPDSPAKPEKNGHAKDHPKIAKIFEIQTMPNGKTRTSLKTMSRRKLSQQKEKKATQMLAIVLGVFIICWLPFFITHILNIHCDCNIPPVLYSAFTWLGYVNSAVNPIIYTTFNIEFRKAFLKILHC
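Agonist mode: compounds alone added to overnight-plated D2 PathHunter cells for 90 min at 37 C, with 57 uM final dopamine (EC100) defining full response. Beta-arrestin recruitment detected by chemiluminescent reagent, read after 1 h at ambient temperature.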
Sfp PPTase inh: qHTS Assay for Inhibitors of Bacillus subtilis Sfp phosphopantetheinyl transferase (PPTase); 4'-phosphopantetheinyl transferase ffp (Bacillus subtilis), Q9F4F7; Biochemical Sfp PPTase activity, qHTS; Potency, µM, without a hit: max response, negative = inhibition, hits mostly inhibitors; hit rate 3.5% among 310,000; AID 1490, 2009; active = well fitted inhibition curve with a large enough effect; inconclusive = small, poorly fitted or top-dose-only effect, or another doubt; inactive = no such curve, though single readings can be large or run the other way;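 note: the enzyme is Sfp with the accession as filed and its product quenches rhodamine fluorescence; potency is the fitted concentration of half-maximal effect; 0% = enzyme reaction without inhibitor and -100% = no enzyme wells; top concentration of the series not given in the record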
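Compounds were incubated with enzyme (final 15 nM) for 15 min at room temperature before substrate addition started the reaction. Fluorescence at 525 nm excitation, 598 nm emission was recorded immediately and after 30 minutes.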
ClpP mod: qHTS Assay for Activators of ClpP. purified B. subtilis ClpP, FRET peptide cleavage, 20 min. hit rate 1.9% among 340,000. ATP-dependent Clp protease proteolytic subunit (Bacillus subtilis (strain 168)), P80244. Potency, µM (doses to about 57.5 µM), inactives show top-dose activity change, negative = active; active = well fitted falling curve with a large enough effect; inconclusive = small, poorly fitted or top-dose-only effect; inactive = no such curve, though single readings can be large or run the other way; note: potency is the fitted concentration of half-maximal effect; the source files actives as falling curves though it sought activators and does not explain the sign; nearly all actives have a fitted effect of over 65% in size; many hits overshoot -100%
Target sequence (P80244 whole entry, looked up): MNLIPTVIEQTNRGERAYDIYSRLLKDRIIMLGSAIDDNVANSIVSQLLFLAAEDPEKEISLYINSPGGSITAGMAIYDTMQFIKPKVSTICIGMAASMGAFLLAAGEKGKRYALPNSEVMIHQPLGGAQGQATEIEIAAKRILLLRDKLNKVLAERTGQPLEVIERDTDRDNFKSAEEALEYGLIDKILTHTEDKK
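Buffer: 100 mM Tris/HCl pH8, 100 mM KCl, 0.05% low protease BSA, 2.5% glycerol, 0.01% Tween-20. ClpP 10 microg/mL final; 20 min RT; delta FRET normalized to ADEP and DMSO controls.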
gsp antagonist: qHTS for Antagonists of gsp, the Etiologic Mutation Responsible for Fibrous Dysplasia/McCune-Albright Syndrome: qHTS | AID 624288, 2012 | hit rate 0.4% among 340,000 | Potency, µM (titrated, usually from 76.9 µM), for the others: at the top dose activity change, negative = inhibition, hits mostly inhibitors | gsp-mutant cells, cAMP HTRF, 30 min; control for the full effect not named in the record; active = falling curve of any shape with a large fitted effect; inconclusive = falling curve, mostly with a smaller effect; inactive = flat or rising curve; cell line not stated here;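 note: intracellular cAMP measured with PDE inhibitor Ro 20-1724 present during compound exposure; potency is the fitted concentration of half-maximal effect; % is set by controls: 0 for no effect and ±100 for the full control effect; nearly all actives have a fitted effect of over 65% in size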
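Cells, 2000/well, grown 16–24 h in DMEM 10% FBS with 0.5 mg/ml G418, then compounds plus […] (300 uM addition stock), 30 min at 37C. cAMP read by HTRF (cAMP-d2 and anti-cAMP antibody-K in lysis buffer) after 30 min RT.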
The depositor's hits bear a star; ? = inconclusive; / = no result given; & = joins results of further samples; [ ] = another dose, or the depositor's remark.

Every second line gives: gsp antagonist | PINK1 modulator | gsp agonist | ClpP mod | D2 agonist | Menin-MLL FL inh | Sfp PPTase inh
CC1=NNC(=O)/C1=C\c1cn(-c2ccccc2)nc1-c1cccs1
 : 94%[activator] | -1.3% | 1% | 3.0% | -3.8 | 4.6 | 32µM*
CCc1cccc(C)c1NC(=O)CO/N=C(\C)c1cc2ccccc2o1
 : ? | 4.4% | 9%[15.4 µM] | 3.9% | -1.5 | 0.8 | 26%
Cc1ccc(OCC(=O)c2cc(C)n(Cc3ccco3)c2C)c([N+](=O)[O-])n1
 : -4% | 4.3% | -27%[15.4 µM] | / | -0.9 | -0.9 | ?
Cc1cc(=O)[nH]c(SCC(=O)Nc2cccc(S(=O)(=O)N3CCOCC3)c2)n1
 : 14% | -1.0% | 16µM* | -2.0% | 2.1 | / | /
CCOc1cc(-c2sc(Nc3ccccc3)n[n+]2-c2ccc(F)cc2)ccc1OC
 : -13% | 3.5% | 20% | -2.6% | -2.1 | -7.7 | 3%
CN(CC(=O)Nc1ccc(N2CCOCC2)cc1)C(=O)CCc1ccccc1Cl
 : -17% | 1.2% | 0%[15.4 µM] | 1.8% | -6.0 | / | /
Cc1ccc(F)cc1-c1nc(NCC2CC2)nc2ccsc12
 : / | 7.1% | / | 4.2% | -2.3 | / | /
CCC1CCc2c(sc(NC(=O)CSc3nc(-c4ccco4)cc(C(F)(F)F)n3)c2C#N)C1 (stereo unspecified)
 : -12% | -6.0%[38.3 µM] | -4% | -2.9% | -1.3 | 3.3 | 5%
Cc1c(N)cccc1[N+](=O)[O-]
 : 5% | 0.4% | / | -2.0% | -3.0 | / | /
Cn1cnnc1SCC(=O)NC1CCCN(Cc2ccccc2F)C1 (stereo unspecified)
 : 13% | -0.8% | -1% | -1.4% | -9.4 | 3.4 | 4%
Cc1nc2nc(CCc3ccccc3)nn2c(C)c1Cl
 : 3% | -1.0%[38.3 µM] | 17% | 3.0% | -1.8 | -0.4 | 1%
CC(C)(C)Nc1nc2nonc2nc1NC(C)(C)C
 : -27% | 0.7%[38.3 µM] | -29% | -1.0% | 4.2 | 7.9 | 6%
CN(C(=O)c1cccc(NC(=O)Cc2ccc(NC(=O)C3CCCN(C(=O)CCc4ccccc4)C3)cc2)c1)C1CC1 (stereo unspecified)
 : -11% | 0.3% | / | -2.0% | -0.5 | / | /
COc1ccccc1N1C(=O)CC(Sc2ccccc2N)C1=O (stereo unspecified)
 : -18% | 2.4% | -18% | 2.1% | -11 | -11 | 8%
CC(C)[C@H](NC(=O)c1ccccc1F)C(=O)NCc1ccc(S(N)(=O)=O)cc1
 : -3% | -1.1% | -1%[15.4 µM] | 1.2% | -6.0 | -2.1 | 5%
O=C(CN1CCN(S(=O)(=O)c2ccc(Br)s2)CC1)N1CCc2ccccc21
 : / | -1.4% | -52% | -2.6% | -2.2 | / | /
CCC1Sc2ccc(S(=O)(=O)CCC(=O)Nc3ccc(OC(F)(F)F)cc3)cc2NC1=O (stereo unspecified)
 : -15% | 5.5% | -7% | 1.0% | -0.1 | -5.5 | 24%
Cc1ccc(S(=O)(=O)N2CCC(C(N)=O)CC2)c(C)c1C
 : 4% | 5.5%[38.3 µM] | -30% | 1.3% | -1.5 | -0.1 | 5%
CC(C(C(=O)N1CCCCC1)N1CCCCC1)N1CCCCC1 (stereo unspecified)
 : 11% | -2.0% | -19% | / | 0.5 | / | /
Cc1ccc(N2CC(C(=O)NCc3cccs3)CC2=O)cc1C (stereo unspecified)
 : 7% | -1.1% | -19% | 0.8% | -4.6 | 2.2 | 1%
Nc1ccccc1-c1nnc(-c2ccc(-c3ccccc3)cc2)o1
 : 10% | -0.6%[38.3 µM] | ? | 513% | -0.8 | -1.6 | -4%
C=C(Cl)COc1ccc2c(CCC)cc(=O)oc2c1
 : 3% | -0.8% | ? | ? | -2.9 | 0.1 | -25%
COc1ccc(CC(=O)NCCCc2ccccc2)cc1OC
 : -2% | 1.1% | -45%[inhibitor] | / | 0.8 | 0.6 | -4%
CCn1c(=O)cc(SCC(=O)Nc2ccc3c(c2)OCCO3)c2ccccc21
 : -8% | -7.4%[38.3 µM] | 23% | -6.8% | 0.2 | -1.0 | 3%
CCc1cc2c(N[C@@H](Cc3c[nH]c4ccccc34)C(=O)O)ncnc2s1
 : -1% | 2.5% | -24% | -2.0% | -2.4 | 0.0 | -4%
CCN(CC)C(=O)CSc1nnc(COc2ccccc2)n1N
 : 7% | -1.9% | -3% | -1.7% | 7.2 | -7.1 | -24%
CCN1CCN(Cc2ccc(C(=O)Nc3ccc(C)c(NCc4cnc(NC(=O)OC)cn4)c3)cc2C(F)(F)F)CC1
 : 5% | 1.8%&1.3% | -59%[inhibitor] | -4.6%&-9.3% | -2.1&-2.9 | 1.0 | 18%
CC(=O)N1c2ccc(S(=O)(=O)N3CCC(C(=O)NCc4ccc(N(C)C)cc4)CC3)cc2CC1C (stereo unspecified)
 : -17% | 1.9% | ? | -1.9% | 2.8 | -2.1 | 9%
CCOc1ccc(C(=O)N/N=C/c2ccc(-c3ccc(S(=O)(=O)Nc4ncccn4)cc3)o2)cc1
 : -8% | -0.9%[38.3 µM] | ? | 28µM* | -2.2 | 7.5 | -5%
Cc1cc(C(=O)N/N=C/c2ccc(-c3ccc([N+](=O)[O-])cc3C)o2)n[nH]1
 : -18% | ? | 18% | 0.6% | -0.2 | ? | 23%
CC1=C(C(=O)N(C)C)CC(CC(=O)NCc2cccs2)C(=O)N1Cc1ccc(C(C)(C)C)cc1 (stereo unspecified)
 : / | -0.3% | / | 1.0% | -4.4 | / | /
O=c1[nH]c(NNC(=S)NCc2ccccc2)nc2c1C1(CCCCC1)Cc1ccccc1-2
 : ? | ? | -1% | 16µM* | 7.1 | 6.3 | -14%
COc1ccc(NC(=O)C2CC(=O)n3c(nc4ccccc43)N2)cc1 (stereo unspecified)
 : 19% | 9.8% | 5% | 0.4% | 3.0 | -2.4 | -3%
CN1OC[C@@H]2CN[C@H](c3cccc(-c4ccc(C#N)cc4)c3)C[C@@H]21
 : 2% | 0.1% | / | 0.6% | -1.0 | / | /
O=C(COC(=O)C1(c2ccc(F)cc2)CCCC1)NC1CC1
 : -1% | 2.6%[38.3 µM] | 14% | -3.8% | -2.5 | 3.6 | 8%
c1ccc(-c2noc(CC3CCCCC3)n2)cc1
 : 1% | ? | -2% | / | 4.0 | -0.8 | 12%
COc1ccc(N=CC2=C(O)CC(C)(C)CC2=O)cc1OC
 : -2% | 1.2% | -4%[15.4 µM] | 1.4% | -1.6 | 4.4 | -3%
COC(=O)[C@@H]1C[C@H]2CC[C@H](O)C[C@H]2N1Cc1ccc(C(C)(C)C)cc1
 : 1% | 0.5% | / | -4.8% | -3.1 | 7.1&8.4 | 26%&5%
Cc1ccc(CC2C(=O)N(c3ccccc3)C(=O)C2C)cc1 (stereo unspecified)
 : -24% | 1.6% | -6%[15.4 µM] | 1.1% | -2.3 | -8.9 | 18%
C=CCNC(=S)NNC(=O)C(CC(C)C)CC(C)O (stereo unspecified)
 : -5% | -1.6% | 0%[15.4 µM] | -0.6% | 2.5 | -0.9 | 12%
CCOC(=O)C1C(=O)C=C(c2ccc(OC)cc2)CC1c1ccco1 (stereo unspecified)
 : ? | 6.8% | -2% | -1.0% | -7.8 | 0.2 | 0%
Cc1ccc(/C=C2\SC(N)=NC2=O)s1
 : -4% | 0.5% | ? | -0.4% | -3.9 | 7.3 | 8%
CCCN(C(=O)COC(=O)Cn1c(=O)oc2ccccc21)c1c(N)n(Cc2ccccc2)c(=O)[nH]c1=O
 : 9% | 2.4% | 4% | -3.8% | -6.3 | / | /
COc1ccc(CC(=O)Oc2cc(C)ccc2C)cc1
 : -12% | 0.3% | 9%[15.4 µM] | / | -1.4 | -2.1 | 3%
C/C(=N\Nc1ccc(C(=O)O)cc1)c1ccc(Cl)s1
 : -1% | -2.5% | -11% | 0.8% | -6.4 | -26 | 10µM*
CCOC(=O)/C(=C\c1ccc(OC(F)F)cc1)C1=Nn2c(nnc2-c2ccc(Cl)cc2)SC1
 : 7% | -3.0% | -15% | -0.8% | -4.0 | 1.7 | -22%
CC1CCN(C(=O)CSc2nnc3ccccn23)CC1
 : 14% | -0.9% | 29% | 4.0% | 9.3 | / | /
Nc1ccc(-c2nc3ccccc3[nH]2)cc1
 : ? | 2.7% | -46% | 5.0% | 0.1 | 2.0 | 11%
CCn1c(SCc2nc(-c3cccs3)no2)nnc1-c1c[nH]c2ccccc12
 : -22% | -2.7% | 24% | -1.0% | -1.1 | -1.7 | -5%
Brc1cccc(-c2nnc(SCc3nc4ccccc4[nH]3)o2)c1
 : -14% | 1.2% | 8% | -1.8% | 0.3 | 1.2 | -8%
CC(=O)Nc1ccc(N(C(=O)c2cnccn2)C(C(=O)NC2CCCCC2)c2ccc(F)cc2)cc1 (stereo unspecified)
 : -2% | 1.7% | -14%[15.4 µM] | / | -3.2 | 4.3 | 7%
Cc1nn(-c2ccccc2)c2sc(C(=O)OCn3nnc4ccccc4c3=O)cc12
 : 5% | 3.7% | -31%[inhibitor] | 10µM* | 0.5 | 7.5 | ?
